# VACV mCherry inh = qHTS for Stage-Specific Inhibitors of Vaccinia Orthopoxvirus: mCherry Reporter Primary qHTS | Potency, µM (titrated, usually from 36.5 µM), inactives show at the top dose activity change, negative = inhibition, hits mostly inhibitors | actives 0.63% (n = 310,000) | AID 720579, 2013 | Vaccinia virus mCherry reporter infection, fluorescence; about a quarter of the inactives have no number; active = well fitted inhibition curve with a large enough effect; inconclusive = small, poorly fitted or top-dose-only effect; inactive = no such curve, though single readings can be large or run the other way; tested in A549 cells; further: nearly all actives have a fitted effect of over 35% in size; inactives centre near -10
# Vaccinia Venus = qHTS for Stage-Specific Inhibitors of Vaccinia Orthopoxvirus: Venus Reporter Primary qHTS; Potency, µM (series often up to 36.5 µM), for inactives: at the top dose activity change, negative = inhibition, usual class: inhibitors; Vaccinia virus Venus reporter expression, fluorescence; actives 0.46% (n = 330,000); AID 720580, 2013; active means well fitted inhibition curve with a large enough effect; inconclusive means small, poorly fitted or top-dose-only effect; inactive means no such curve, though single readings can be large or run the other way; tested in A549 cells; further: nearly all actives have a fitted effect of over 30% in size; inactives centre near -10
# Active calls of the source: *; i = inactive; u = inconclusive; x = no result given; [ ] = remark or other dose. On the % scale 0 is the no-effect control and ±100 the full control effect; potency means the concentration at half of the fitted maximal effect.
# The first 4 compounds as a preview:
SMILES,VACV mCherry inh,Vaccinia Venus
CN(C)c1ccc(-c2nnn(CC(=O)N3c4ccccc4CCc4ccccc43)n2)cc1,i,-0.1%
O=C(NN=Cc1c(F)c(F)c(F)c(F)c1F)c1ccc(NS(=O)(=O)c2cccs2)cc1,-15.5%,0.9%
CCCCNC(=S)N/N=C/c1cc(C)ccc1C,-6.1%,-24.2%
COc1cc(C(c2c(NC(=O)c3ccco3)sc(C)c2C)N2CCOCC2)cc(OC)c1OC (stereo not drawn),-19.8%,-15.2%

# The whole of this part, previewed entries included:
SMILES,VACV mCherry inh,Vaccinia Venus
CN(C)c1ccc(-c2nnn(CC(=O)N3c4ccccc4CCc4ccccc43)n2)cc1,i,-0.1%
O=C(NN=Cc1c(F)c(F)c(F)c(F)c1F)c1ccc(NS(=O)(=O)c2cccs2)cc1,-15.5%,0.9%
CCCCNC(=S)N/N=C/c1cc(C)ccc1C,-6.1%,-24.2%
COc1cc(C(c2c(NC(=O)c3ccco3)sc(C)c2C)N2CCOCC2)cc(OC)c1OC (stereo not drawn),-19.8%,-15.2%
Cc1ccccc1-c1cncnc1N1CCNCC1,i,0.0%
N=c1sccn1CC(=O)NCCc1ccc(Cl)cc1Cl,-1.0%,14.6%
O=C(Nc1ccccc1Cl)NC1(C(=O)N2CCOCC2)CCCCC1,10.2%,30.1%[activator]
C/C(=N\NC(=O)Cn1c(-c2ccccn2)nc2ccccc21)c1cccc(O)c1,3.6%,-14.1%
O=C1C2C3C=CC(C3)C2C(=O)N1c1ncc([N+](=O)[O-])s1 (stereo not drawn),i,0.4%
CS(=O)(=O)c1ccc(NCC2CCCO2)c([N+](=O)[O-])c1 (stereo not drawn),-1.5%,7.5%
Cc1ccc(-c2csc(N/N=C/c3ccco3)n2)cc1,-22.8%,-22.6%
COc1ccc(-n2c(N)cc(=O)nc2SCC(=O)N2CCN(c3ccccc3)CC2)cc1,-14.6%,-3.2%
CCN(CC)C(=O)Cn1c(SCC(=O)Nc2ccc(F)cc2)nc2ccccc21,-11.0%,1.2%
CC(=O)OC1CC2C(C)(C)C(O)C=C[C@@]2(C)C2CC[C@@]3(C)C(c4ccoc4)OC(=O)C4OC43[C@]12C (stereo partly drawn),-29.0%,-27.0%
Nc1nc(CSc2nnnn2-c2ccc(Cl)cc2)nc(N2CCOCC2)n1,x,-18.2%
CCCN(CC(=O)Nc1ccccc1C)C(=O)c1ccc(COc2ccccc2)cc1,u,u
CCNC(=S)N1CCC(Cc2ccccc2)CC1,i,-6.5%
COC(=O)CCCC1=CC2=C(c3ccccc3)C(=O)C(C)(OC(=O)C3CCCC3)C(=O)C2=CN1CC(C)C (stereo not drawn),i,-6.6%
CCOC(=O)c1c(NC(=O)c2nc(SC(C)C)ncc2Cl)sc2c1CCCC2,2.0%,17.3%
COc1cccc(-c2cnc3cccnn23)c1,i,-13.6%
O=C(CNC(=O)c1ccccc1)NCc1ccc(Cl)cc1,-5.6%,-15.3%
Oc1ccccc1C1Nc2cccc3cccc(c23)N1,-11.2%,-6.1%
O=C(Nc1nc2nc(-c3ccccc3)cc(=O)n2[nH]1)c1ccc(Cl)cc1,i,-14.1%
COc1ccc(CNC(=O)c2c3c(nc4ccccc24)C(=O)N(C2CCCCC2)C3)cc1,-21.5%,-4.6%
CC(C)CCNC(=O)C1CCN(S(=O)(=O)c2ccc(-n3cnnn3)cc2)CC1,-7.9%,-13.5%
# New compounds follow
SMILES,VACV mCherry inh,Vaccinia Venus
Cc1nc(N)nc(C)c1Cc1ccccc1,-17.7%,-11.3%
CCOC(=O)c1ccc(N(C(=O)c2ccccc2)c2ccccc2)cc1,i,-20.9%
CCOC(=O)c1cc(-c2ccccc2)n(CC(=O)Nc2cc(Cl)c(OC)cc2OC)c1C,u,u
O=c1c(S(=O)(=O)c2cccc(Cl)c2)cn(Cc2ccccc2)c2cc(N3CCOCC3)c(F)cc12,i,-16.3%
CCOC(=O)COn1c(=O)c(-c2ccc(Br)cc2)[n+]([O-])c2ccccc21,-6.1%,-4.1%
CN(C)CCNc1nc2sc3c(c2c(=O)n1-c1ccc(F)cc1)CCCCC3,-11.1%,-17.8%
OCCC1CN(Cc2cnc(-c3ccccc3)s2)CCN1Cc1ccccc1 (stereo not drawn),-11.9%,-13.8%
COC(C/C=C/C=C/CC/C=C\CC(C)/C=C\C(=C/C(=O)O)CC(=O)O)/C(C)=C\C=C(/C)C(=O)O (stereo not drawn),-14.3%[3.33 µM],-10.8%[3.33 µM]
CC(=O)NCCNc1nc2cc(-c3cnn(CCC(C)C)c3)sc2c(=O)n1C,i,0.5%
Cc1cc(C)n2nc(SCc3nnc(SCc4ccccc4)s3)nc2n1,-8.0%,-18.2%
Clc1ccc2nc(C3CCCCC3)c(Cc3ccsc3)n2c1,2.6%,-4.8%
CCOC(=O)CCCCCC(=O)Nc1ccc2c(c1)C(=O)N([C@H](C)CO)C[C@H](C)[C@H](CN(C)C(=O)C1CCCCC1)OCCCC[C@@H](C)O2,i,-21.8%
COc1ccccc1CNC(=O)c1cc(-c2ccccc2)n[nH]1,-17.6%,3.6%
CN1C(=O)C(c2cn(C)c3ccccc23)(c2cn(C)c3ccccc23)c2cc(F)ccc21,u,-11.2%
CCn1cc(C(=O)NC2CCCCCC2)c2cc(OC)c(OC)cc2c1=O,-23.6%,-19.8%
CCc1c(-c2cccc(Cl)c2)ncn1Cc1cccc(-c2ccccc2)c1,-10.2%,-26.4%
COC(=O)c1c(OCc2ccccn2)cc(=O)n2c1CCN(Cc1ccc3nsnc3c1)CC2,-2.5%,0.0%
C/C(Nc1ccc(Cl)c(Cl)c1)=C1/CCOC1=O,-6.9%,-16.1%
CSc1nsc(SCC(=O)Nc2ccc(C(=O)O)cc2)n1,i,-23.1%
CS(=O)(=O)c1ccc(C(=O)OCc2nnc(-c3ccc(Cl)cc3)o2)cc1[N+](=O)[O-],-23.4%,-16.7%
CCOc1ccccc1NC(=O)Cn1c(=O)n(Cc2ccccc2)c(=O)c2cccnc21,-11.8%,-3.1%
COc1ccc(S(=O)(=O)N2CCOCC2)cc1NC(=O)Cn1nnc2ccccc2c1=O,9.4%,1.8%
O=C(CSc1nnc2ccccn12)NC(=O)NC1CCCC1,i,-10.9%
Cc1ccc2c(c1)c(=O)c(C(=O)c1ccccc1)cn2Cc1ccccc1F,u,u
O=C(Cn1ccc(NC(=O)OCc2ccccc2)nc1=O)NCc1ccc2[nH]ccc2c1,i,-16.4%
# More records
SMILES,VACV mCherry inh,Vaccinia Venus
Cc1cc2c(cc1S(=O)(=O)NCC(C)c1ccccc1)n(C)c(=O)c(=O)n2C (stereo not drawn),-5.3%,-6.1%
Cc1cccc(-c2noc(CNC(=O)COc3ccccc3C)n2)c1,i,-20.4%
C/C(CCc1ccc2c(c1)OCO2)=N\N=C1\NC(=O)CC(C(=O)Nc2ccc(C(=O)O)cc2)S1 (stereo not drawn),u,u
COc1ccccc1-c1ccc(SCc2ccc(F)cc2)nn1,-5.7%,-0.6%
CCCS(=O)(=O)NC(=O)C1(C)CCN(C(=O)c2cc(C)on2)C1 (stereo not drawn),35.3%[activator],-0.4%
CC12C(=O)N(c3ccc(OC(=O)c4ccco4)cc3)C(=O)C1C1c3ccccc3C2c2ccccc21 (stereo not drawn),-12.9%,-6.0%
C/C(=N\O)c1ccc2c(c1)CC(C)O2 (stereo not drawn),-8.5%,1.0%
CC[C@@]1(C(=O)OC)N[C@H](CN(C)C(=O)Nc2ccc(C)cc2)[C@@H]2C(=O)N(C)C(=O)[C@@H]21,-5.3%,1.0%
S=C(NCc1ccco1)NCc1ccco1,i,-8.6%
Fc1ccc(NC(=S)SCc2ccc3c(c2)OCO3)cc1F,u,u
COCC(=O)NC1(c2nnnn2CCOC(=O)Nc2ccc(Cl)cc2)CCCCC1,-6.6%,-5.1%
CCOC(=O)C1CCN(C(=S)NC2CCCC2)CC1,i,-7.0%
Cc1oc(-c2ccccc2F)nc1CS(=O)CC(=O)NC1CCCC1 (stereo not drawn),-7.4%,-2.6%
CC(=O)Nc1ccc2c(c1)Cc1c-2cc(Cl)c(NC(C)=O)c1Cl,-28.0%,-15.1%
COc1ccc(CNC(=S)NC2CCCCC2)cc1,-10.0%,-27.4%
NC(=O)c1cnn2c(-c3ccc(Cl)cc3Cl)ccnc12,i,-6.7%
O=C(CCn1nc(-c2ccccc2)ccc1=O)N1CCN(c2ccccn2)CC1,-9.3%,0.7%
CC(=O)Nc1ccc(NC(=O)CN2C(=O)COc3ccc(S(=O)(=O)N4CCCCC4)cc32)cc1,i,-11.5%
Cc1nonc1OCCNc1ccc([N+](=O)[O-])c2cccnc12,-20.8%,-15.5%
Cc1cc(-c2nnco2)c(C)n1-c1ccc(F)cc1,-12.1%,-14.5%
O=C(O)c1cccc(N2C(=O)Nc3ccccc3N2O)c1,-15.2%,-12.6%
O=[N+]([O-])c1cccc(/C(=N/N=C/c2ccccc2Br)C23CN4CN(CN(C4)C2)C3)c1,-14.7%,-11.3%
CCOc1cc(/C=N/NC(=O)CSc2nncn2C)ccc1OCC(N)=O,i,-7.3%
O=C(NCCCN1CCCC1=O)c1ccc(Cl)c(Cl)c1,-0.6%,0.0%
COc1ccc2c(Cl)c(C(=O)N/N=C/c3ccncc3)sc2c1,-8.8%,-16.5%
# Additional results:
SMILES,VACV mCherry inh,Vaccinia Venus
CCOc1cc(C(Nc2cc(C)ccn2)c2ccc3cccnc3c2O)ccc1OC (stereo not drawn),i[7.34 µM],-8.6%[7.34 µM]
Cc1cc(OCC(=O)N(Cc2ccc(N(C)C)cc2)CC2CCCO2)ccc1Cl (stereo not drawn),-3.7%,-12.8%
CC(=O)Nc1ccc(NC(=O)CN2CCN(c3cccc(C(F)(F)F)c3)CC2)cc1,-12.0%,0.0%
CCC(C)[C@H](NC(=O)N1CC(=O)Nc2ccccc21)C(=O)NC(C)CCc1ccccc1 (stereo partly drawn),i,-10.3%
C=CCN(CC=C)C(=S)Nc1ccc2nsnc2c1,u,-3.9%
Cc1ccc2oc(=O)c(-c3ccc(O)cc3)c(C)c2c1,u,u
O=C1N(Cc2cccnc2)C[C@@H]2C[C@@H](c3cccc(OC4CCCC4)c3)N3CCC[C@@]123,-3.7%,-9.1%
CCC1CCCCN1C(=O)c1c(-c2ccccc2)noc1C (stereo not drawn),x,-12.6%
Cc1ccc(C(=O)O)cc1-c1ccc(/C=C2\SC(=O)N(CC(=O)Nc3ccc4c(c3)OCO4)C2=O)o1,i,-8.9%
CC(C)(C)n1nnnc1C(c1cccnc1)N1CCN(C2CCCCC2)CC1 (stereo not drawn),-11.7%,-3.8%
CN(C(=O)c1ccccn1)c1nnc(-c2cccnc2)s1,-20.4%,-11.7%

# Another view of some results above:
compound | VACV mCherry inh | Vaccinia Venus
O=C(CCn1nc(-c2ccccc2)ccc1=O)N1CCN(c2ccccn2)CC1 | -9.3% | 0.7%
CC(=O)Nc1ccc(NC(=O)CN2C(=O)COc3ccc(S(=O)(=O)N4CCCCC4)cc32)cc1 | i | -11.5%
Cc1nonc1OCCNc1ccc([N+](=O)[O-])c2cccnc12 | -20.8% | -15.5%
Cc1cc(-c2nnco2)c(C)n1-c1ccc(F)cc1 | -12.1% | -14.5%
O=C(O)c1cccc(N2C(=O)Nc3ccccc3N2O)c1 | -15.2% | -12.6%
O=[N+]([O-])c1cccc(/C(=N/N=C/c2ccccc2Br)C23CN4CN(CN(C4)C2)C3)c1 | -14.7% | -11.3%
CCOc1cc(/C=N/NC(=O)CSc2nncn2C)ccc1OCC(N)=O | i | -7.3%
O=C(NCCCN1CCCC1=O)c1ccc(Cl)c(Cl)c1 | -0.6% | 0.0%
COc1ccc2c(Cl)c(C(=O)N/N=C/c3ccncc3)sc2c1 | -8.8% | -16.5%
CCOc1cc(C(Nc2cc(C)ccn2)c2ccc3cccnc3c2O)ccc1OC (stereo not drawn) | i[7.34 µM] | -8.6%[7.34 µM]
Cc1cc(OCC(=O)N(Cc2ccc(N(C)C)cc2)CC2CCCO2)ccc1Cl (stereo not drawn) | -3.7% | -12.8%
CC(=O)Nc1ccc(NC(=O)CN2CCN(c3cccc(C(F)(F)F)c3)CC2)cc1 | -12.0% | 0.0%
CCC(C)[C@H](NC(=O)N1CC(=O)Nc2ccccc21)C(=O)NC(C)CCc1ccccc1 (stereo partly drawn) | i | -10.3%
C=CCN(CC=C)C(=S)Nc1ccc2nsnc2c1 | u | -3.9%
Cc1ccc2oc(=O)c(-c3ccc(O)cc3)c(C)c2c1 | u | u
O=C1N(Cc2cccnc2)C[C@@H]2C[C@@H](c3cccc(OC4CCCC4)c3)N3CCC[C@@]123 | -3.7% | -9.1%
CCC1CCCCN1C(=O)c1c(-c2ccccc2)noc1C (stereo not drawn) | x | -12.6%
Cc1ccc(C(=O)O)cc1-c1ccc(/C=C2\SC(=O)N(CC(=O)Nc3ccc4c(c3)OCO4)C2=O)o1 | i | -8.9%
CC(C)(C)n1nnnc1C(c1cccnc1)N1CCN(C2CCCCC2)CC1 (stereo not drawn) | -11.7% | -3.8%
CN(C(=O)c1ccccn1)c1nnc(-c2cccnc2)s1 | -20.4% | -11.7%

# Source: PubChem (National Center for Advancing Translational Sciences (NCATS))
